High-throughput results: PubChem BioAssay, National Center for Advancing Translational Sciences (NCATS)
VDR inhibitor = inhibitors of human vitamin D receptor; P11473; VDR-SRC2-3 peptide fluorescence polarization, 2 h; Potency, µM, inactives show max response, negative = inhibition, hits mostly inhibitors; hit rate 0.93% among 400,000; active = well fitted inhibition curve with a large enough effect; inconclusive = small, poorly fitted or top-dose-only effect, or another doubt; inactive = no such curve, though single readings can be large or run the other way; note: series mostly up to about 120 µM
Target sequence (P11473 whole entry, looked up): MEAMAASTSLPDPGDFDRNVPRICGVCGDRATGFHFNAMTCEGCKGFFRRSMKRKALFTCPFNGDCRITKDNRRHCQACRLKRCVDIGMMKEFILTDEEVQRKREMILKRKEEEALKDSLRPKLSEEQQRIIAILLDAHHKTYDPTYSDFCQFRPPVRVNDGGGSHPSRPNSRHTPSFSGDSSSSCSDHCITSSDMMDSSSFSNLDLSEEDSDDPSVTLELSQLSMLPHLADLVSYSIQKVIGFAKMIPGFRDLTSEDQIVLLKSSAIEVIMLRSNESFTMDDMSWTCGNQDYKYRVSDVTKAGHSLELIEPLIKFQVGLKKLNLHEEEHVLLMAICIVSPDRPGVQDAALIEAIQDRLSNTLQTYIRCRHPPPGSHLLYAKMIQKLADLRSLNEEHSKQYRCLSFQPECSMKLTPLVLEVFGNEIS
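Compounds are added to VDR with labelled SRC2-3 coactivator peptide and held 2 h at room temperature. Inhibition of the VDR–peptide interaction is then read as a change in fluorescence polarization.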
Active calls of the source: *; ? = inconclusive; & = joins results of further samples. % is set by controls: 0 for no effect and ±100 for the full control effect; potency is the fitted concentration of half-maximal effect. Some of the compounds tested, so the mix of outcomes need not match the whole.

VDR inhibitor,compound
-13%,COc1cccc(-c2c(-c3cc(OC)cc(OC)c3)n(C)c3ccc(-c4ccc5cc[nH]c5c4)cc23)c1
-27%,CCC(C(=O)NCc1ccc(C)o1)n1nc(C)c2c(C)n(-c3ccccc3)nc2c1=O (configuration not stated)
-6%,CCN(Cc1ccccc1)S(=O)(=O)c1nc2nc(C)c(C)c(C)n2n1
-11%,O=C(Cn1cc(C(=O)c2cccs2)c2ccccc21)NCc1ccc2c(c1)OCO2
-5%,CC(=O)c1cccc(NC(=O)c2noc3c2CCCC3)c1
-2%,CN(C)S(=O)(=O)c1ccc(Cl)c(NC(=O)CN2CCCC2)c1
-29%,C[C@]12c3[nH]c4cc(-c5ccco5)ccc4c3CCN1C(=O)[C@@H](CC(=O)NCc1ccco1)C[C@@H]2C(=O)N1CCCCC1
4%,Cc1cc2c(c(=O)o1)C(Cc1ccccc1)C(C#N)=C(N)O2 (configuration not stated)
5%,CCOc1ccc(/C=N/NC(=O)COc2ccccc2-c2ccccc2)cc1
-1%,CCOc1ccc(N2C(=O)Nc3ccccc3C2(O)C(=O)NCc2ccc3c(c2)OCO3)cc1 (configuration not stated)
-21%,CCOC(=O)N1CCN(C(=O)c2cc3c(=O)n(C)c4ccccc4c3n2C)CC1
12%,COc1ccc(NC(=O)c2c(-c3ccccc3Cl)noc2C)c(OC)c1
4%,CCOC1=NS(=O)(=O)c2ccccc21
-2%,O=C(Nc1ccccc1)Nc1nnc(SCc2ccc(Cl)cc2)s1
7%,Cc1ccc(OCCSc2nnc(NC(=O)c3ccco3)s2)cc1
-27%,COc1ccc(C2c3c(ccc4ccccc34)Oc3ncn4nc(-c5ccco5)nc4c32)cc1OC (configuration not stated)
-6%,CC[C@H](C)[C@H]1CNC(=S)N1CC1CCN(CCC(C)(C)C)CC1
3%,COc1ccc(C(N)=S)c(OC)c1
1%,CCn1c(Cn2nnc(-c3ccccc3)n2)nnc1SCc1ccc(Cl)c(Cl)c1
12%,COC(=O)c1c(-c2ccc(F)cc2)csc1NC(=O)c1ccco1
?,COc1cc(C(c2c(C)[nH][nH]c2=O)c2c(C)[nH][nH]c2=O)cc(Br)c1OC
6%,CC(=O)/C(=N\Nc1ccccc1Cl)Sc1cccc2cccnc12
0%,CC(C)NC(=O)NNC(=O)c1nn(-c2ccc(F)cc2)ccc1=O
10%,CCN(CC)CCN1c2ccccc2Sc2ccc3ccccc3c21
-20%,Cc1ccc(S(=O)(=O)N2CCOCC2)cc1C(=O)NC1CCCC1
?,Oc1cc2ccccc2cc1-c1n[nH]c(=S)o1
32µM*,COc1ccccc1-c1cc(C(F)(F)F)nc(S(=O)(=O)CCCC(=O)N2CCCCC2C)n1 (configuration not stated)
3%,Cn1nnnc1SCCCNCc1ccc(-c2cccc(Cl)c2)o1
6%,Cc1nc2oc3ccc(F)cc3c(=O)c2cc1C(=O)NC(C)(C)C
-17%,O=C(NC(=S)Nc1cc(-c2nc3ccccc3[nH]2)ccc1Cl)c1ccc2c(c1)OCO2
-15%,Cc1ccc(-c2csc3ncnc(Cl)c23)cc1
12%,O=C(NC1CCSC1=O)C1CCCCC1 (configuration not stated)

Structures shown so far that contain four or more nitrogen atoms, in the order listed:
VDR inhibitor,compound
-27%,CCC(C(=O)NCc1ccc(C)o1)n1nc(C)c2c(C)n(-c3ccccc3)nc2c1=O (configuration not stated)
-6%,CCN(Cc1ccccc1)S(=O)(=O)c1nc2nc(C)c(C)c(C)n2n1
-29%,C[C@]12c3[nH]c4cc(-c5ccco5)ccc4c3CCN1C(=O)[C@@H](CC(=O)NCc1ccco1)C[C@@H]2C(=O)N1CCCCC1
-21%,CCOC(=O)N1CCN(C(=O)c2cc3c(=O)n(C)c4ccccc4c3n2C)CC1
-2%,O=C(Nc1ccccc1)Nc1nnc(SCc2ccc(Cl)cc2)s1
-27%,COc1ccc(C2c3c(ccc4ccccc34)Oc3ncn4nc(-c5ccco5)nc4c32)cc1OC (configuration not stated)
1%,CCn1c(Cn2nnc(-c3ccccc3)n2)nnc1SCc1ccc(Cl)c(Cl)c1
?,COc1cc(C(c2c(C)[nH][nH]c2=O)c2c(C)[nH][nH]c2=O)cc(Br)c1OC
0%,CC(C)NC(=O)NNC(=O)c1nn(-c2ccc(F)cc2)ccc1=O
3%,Cn1nnnc1SCCCNCc1ccc(-c2cccc(Cl)c2)o1
-17%,O=C(NC(=S)Nc1cc(-c2nc3ccccc3[nH]2)ccc1Cl)c1ccc2c(c1)OCO2

Going on with the list.
VDR inhibitor,compound
0%,CCCn1c(N)c(C(=O)COC(=O)CNC(=O)c2ccccc2OCC)c(=O)[nH]c1=O
9%,O=C1[C@@H]2C[C@@H]3C[C@H]1C[C@@](O)(C3)C2
-3%,CC(/C=C/c1ccc2c(c1)OCO2)=N\NC(=O)c1cccc([N+](=O)[O-])c1
-1%,O=C(O)C1CCC(=O)N(C2CCCCC2)C1c1ccccc1 (configuration not stated)
-9%,Cc1ccc(C2(C)NC(=O)N(CC(=O)NNC(=O)c3ccccc3)C2=O)cc1 (configuration not stated)
5%,COCCn1c(SCC(=O)N2CCCCC2)nc2ccccc2c1=O
-23%,O=C(CCN1C(=O)c2ccccc2C1=O)CN1CCOCC1
?,C=CC1=C(C)C2=NC1=CC1=NC(=CC3=NC(=CC4=NC(=C2)C(C)=C4CCC(=O)O)C(CCC(=O)O)=C3C)C(C=C)=C1C.[Zn]
-10%,CC(=O)Nc1cccc(-c2cnc(N)c(C(=O)c3cccnc3)n2)c1
7%,NS(=O)(=O)c1ccc(CCNC(=O)Cn2c(=O)c3cccn3c3cccnc32)cc1
3%,Cc1cc(NC(=O)c2cc([N+](=O)[O-])cc([N+](=O)[O-])c2)no1
12%,CCOC(=O)C1=C(C)Nc2ncnn2C1c1ccc2c(c1)OCO2 (configuration not stated)
2%,Clc1ccc(CSc2nnc([C@@H]3CCCN3)o2)cc1
2%,CCCCn1nnc(NC(=O)CC23CC4CC(CC(C4)C2)C3)n1
0%,COc1cc2c(=O)n(Cc3ccccc3)c(=O)n(CC(=O)NCC3CCCO3)c2cc1OC (configuration not stated)
-24%,COC(=O)C1=C[C@@H](C(=O)OC)[C@@H]2C3=C(C(=O)[C@]2(C)NC(=O)c2ccccc2)[C@H](C)n2c(=O)n(-c4ccccc4)c(=O)n2[C@@H]3C1
-24%,CC(C)c1ccc(/C=N/NC(=O)c2nnn(-c3nonc3N)c2CN(C)C2CCCCC2)cc1
-5%,O=C(CC1Sc2ccccc2NC1=O)OC(C(=O)NCCc1ccccc1)c1cccnc1 (configuration not stated)
-5%,CCOC(=O)N1CCC(NC(=O)c2ccc3c(c2)N(Cc2ccc(Cl)cc2)C(=O)c2ccccc2S3=O)CC1 (configuration not stated)
-12%,O=C(O)CCC(=O)Nc1ccccc1C(=O)Nc1ccccc1
-10%,CCn1c(SCC(=O)NC(C)C(C)C)nc2cc(S(=O)(=O)N3CCOCC3)ccc21 (configuration not stated)
-6%,CCCc1cc(C(=O)Nc2cc(OC)c(Cl)cc2OC)no1
1%,Cc1sc2ncnc(N3CCC(C(=O)Nc4ccc(S(N)(=O)=O)cc4)CC3)c2c1C
4%,COc1cc(C(=O)NCC2CCCCC2)cc(OC)c1OC
0%,CC1(C(=O)Nc2ccc3c(c2)OCO3)CC1(Cl)Cl (configuration not stated)
2%,N#Cc1c(F)cccc1N1CCOCC1
9%,CCOc1ccc(S(=O)(=O)N2CC(=O)Nc3ccccc32)cc1C#N
7%,CC(=O)Nc1ccc(S(=O)(=O)N2CCSC2c2ccco2)cc1 (configuration not stated)
-27%,O=C1CC(N2CCOCC2)=NN1c1ccc([N+](=O)[O-])cc1
-21%,CCC(=O)N1CCc2cc(S(=O)(=O)NCCC(=O)Nc3ccc(N(CC)CC)cc3C)ccc21
8%,COc1ccc2nc(NC(=O)CCN3C(=O)c4ccccc4C3=O)sc2c1
-34%,S=C(NCc1ccccn1)Nc1ccccc1Cl
2%,Cc1cc(Nc2ccccc2)nn1C(=O)c1ccc([N+](=O)[O-])cc1
-6%,CCOc1ccccc1NC1=NCC(=O)N1Cc1ccc(F)cc1
6%,O=C(NN1C(=O)c2ccccc2NC1c1ccoc1)c1ccc([N+](=O)[O-])cc1 (configuration not stated)
2%,CCOC(=O)c1c(NC(=S)NC(=O)c2ccc(Cn3cc(Cl)cn3)o2)sc2c1CCCCC2
16%,O=C(Nc1nnc(CCN2CCOCC2)s1)C1CCCCC1
-1%,COc1ccc(NC(=O)c2cc(-c3ccccn3)nc3c(C)cc(C)cc23)c(C)c1
12%,CCC(=O)n1nc(NCc2ccccc2OC)nc1NCc1ccccc1OC
7%,CCc1ccc(NC(=S)N2CCC(NC(=O)C3CCCCC3)CC2)cc1
0%,CCN1CCN(c2cc(C)c3cc(NC(=O)c4ccccc4F)ccc3n2)CC1
13%,CCOC(=O)c1c(C)[nH]c2ccc3c(c12)CN1CCc2cc(OC)ccc2[C@@H]1O3
-4%,O=C(Nc1ccc(C(F)(F)F)cc1)c1csc(-c2ccncc2)n1
-9%,N#Cc1cccc(-c2ccc3ncnc(NCc4ccccc4)c3c2)c1
4%,COc1ccc(S(=O)(=O)NCCc2cn3nc(C)c(C)nc3n2)cc1C
24%,COc1cc2c(cc1OC)CN(CC(=O)Nc1ccccc1C(=O)NC1CC1)CC2
7%,O=C(Nc1ccc(NC(=O)c2ccc3c(c2)OCCO3)cc1)c1ccccc1
-2%,O=C(NC(=S)N1CCN(C/C=C/c2ccccc2)CC1)c1ccc(F)cc1
-15%,COC(=O)C1=C[C@@H](C(=O)OC)C2C3=C(C(=O)[C@]2(CC(C)C)NC(=O)c2ccccc2)[C@H](C)n2c(=O)n(C)c(=O)n2[C@@H]3C1 (some centres not stated)
-5%,COc1ccc2c(c1)CCc1c(C(=O)NCC(C)C)noc1-2
-15%,CNC(=S)NNC(=O)c1sc2cc(C(F)(F)F)cnc2c1-c1cccnc1
-3%,CN1C(=O)N(CN2CCCCC2)C2C1N(C)C(=O)N2CN1CCCCC1 (configuration not stated)
21%,Cc1ccc(NC(=O)CN2C(=O)CC(C)S(=O)(=O)c3ccccc32)cc1 (configuration not stated)
-5%,CC1(c2ccccc2Cl)NC(=O)N(CC(=O)Nc2ccc3c(c2)OCO3)C1=O (configuration not stated)
18%,CCOc1ccc(C(=O)Nc2nnc(SCc3cc(=O)c4cc(C)ccc4[nH]3)s2)cc1
-4%,CCN(CC)C(=O)C1CCN(S(=O)(=O)c2cccc3nonc23)CC1

(more compounds)
VDR inhibitor,compound
-7%&-8%,CCN(CC)CCNC(=O)c1ccc(Cl)c(S(=O)(=O)Nc2ccc(Cl)cc2)c1
-7%,O=C1CC(=O)C(n2cncn2)C(c2cccc(Cl)c2)C1 (configuration not stated)
10%,O=C(CN1CCN(c2ccc(F)cc2)CC1)Nc1ccc2c(c1)OCCO2
-18%,Cc1ccc(C)c(CN2C(=O)c3ccccc3S(=O)c3ccc(C(=O)N4CCCCC4)cc32)c1 (configuration not stated)
3.5µM*,O=C1c2ccccc2CC[C@H]1CNCCc1ccc(O)cc1
7%,COc1ccc(NC(=O)c2ccco2)cc1NC(=O)c1c(F)c(F)c(OC)c(F)c1F
-6%,CCOc1cc(C2C3=C(CC(C)(C)CC3=O)N(C)C3=C2C(=O)CC(C)(C)C3)ccc1O
-6%,COc1ccc(OCC(O)CNC(C)c2ccccc2)cc1 (configuration not stated)
13%,O=S(=O)(Cc1ccc(Cl)cc1)c1ccccc1-c1nnc(-c2ccccc2)o1
-15%,Cc1nn(C(C)C(=O)O)c(=O)c2c1sc1ccccc12 (configuration not stated)
-16%,COc1ccc(-n2nc3c(c2NC(=O)COc2ccccc2)CS(=O)(=O)C3)cc1
-13%,Cc1nn(C)c(C(=O)NNC(=O)NC2CCCCC2)c1Cl
18%,Cc1ccc(SCc2ccc(C(=O)Nc3cccc([N+](=O)[O-])c3C)cc2)cc1
-3%,CCOCCCn1c(SCc2nc3sc(C(=O)O)c(C)c3c(=O)[nH]2)nnc1-c1ccc(Cl)cc1
-17%,COc1ccccc1OCCn1c(CCNC(=O)C2CCCCC2)nc2ccccc21
-28%,CCOc1cc(NC(=S)NCc2ccco2)c(OCC)cc1NC(=O)c1ccco1
3%,Cc1ccc(NC(=O)CN2C(=O)S/C(=C\c3cccn3C)C2=O)cc1
-7%,COc1ccc(Cl)cc1C(=O)N1CCN(Cc2ccc3c(c2)OCO3)CC1
-3%,O=C(O)c1ccc(Oc2ccc(S(=O)(=O)c3ccc(C(=O)O)c(C(=O)O)c3)cc2)cc1
24%,Cn1c(NCc2cccc(Cl)c2)nc2ccccc21
40µM*,CCN(CC)C(=O)CSc1nc2c(sc(=S)n2-c2ccccc2)c(=O)n1Cc1ccco1
-2%,CC(=O)c1cccc(NC(=O)Nc2nnc(N3CCCC3)s2)c1
11%,NC(=O)c1ccc(OCc2ccccc2)nc1
6%,CCCCCCC(=O)N/N=C1\CCCc2ccccc21
-3%,COc1ccc(CC(NC(C)=O)C(=O)NC2CCN(S(=O)(=O)c3ccccc3)CC2)cc1OC (configuration not stated)
-13%,CCCc1nnc(NC(=O)COc2ccc3c(c2)OCO3)s1
-10%,CCOc1ccc(C2C(C(=O)c3ccc(C)o3)=C(O)C(=O)N2CCCN(CC)CC)cc1 (configuration not stated)
-13%,NS(=O)(=O)c1cccc(NC(=O)CN2C(=O)C(=O)N(Cc3ccccc3)C2=O)c1
0%,Cc1ccc(C)c(S(=O)(=O)N2CCN(c3ncccn3)CC2)c1
10%,COc1cccc(Nc2cc(-c3ccccc3)nc(C)n2)c1
?,CCOc1ccccc1/C=C(\C#N)C(=O)Nc1cccc(C(=O)O)c1
-15%,COc1ccc(NC(=O)CN(c2ccc(OC)c(Cl)c2)S(=O)(=O)c2ccccc2)cc1
